A1 apoptosis 2: blocks A1, raising caspase activity. MEF A1-2A-BIM cells, caspase-Glo luminescence, 3 h; percent of clofoctol response, DMSO zero. caspase activation, % (concentration not given with the values). 24,000 tested, under 10 active. AID 2465; in the data active = caspase activation above about 5.9%;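 also: wells of about 30 µL received 50 nL stock; the first replicate is given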
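System: mouse embryonic fibroblasts co-expressing A1 and BIM (A1-2A-BIM), primed for A1 dependence; amount: 2500 cells/well; doses: 50 nL pinned compound; schedule: cells settled overnight, compound exposure 3 h at 37 °C, 5% CO2; detection: Caspase-Glo 3/7 luminescence, 1 h at room temperature; read-out: Caspase-3/7 activation, seen as rise in luminescence signal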
* marks the source's active call; other numbers are inactive results. The list is partial; rates above refer to the full screens.

SMILES	A1 apoptosis 2
C[C@@H]1CCCCO[C@@H](CN(C)S(=O)(=O)c2ccccc2)[C@H](C)CN([C@H](C)CO)C(=O)c2cc(NS(C)(=O)=O)ccc2O1	0.3
CNC[C@@H]1OCCCC[C@H](C)Oc2ccc(NC(=O)CCC(F)(F)F)cc2C(=O)N([C@@H](C)CO)C[C@H]1C	-0.7
Cc1noc(C)c1NC(=O)Nc1ccc2c(c1)C(=O)N([C@H](C)CO)C[C@H](C)[C@H](CN(C)C(=O)Nc1c(C)noc1C)OCCCC[C@@H](C)O2	0.1
C[C@@H]1CN([C@H](C)CO)C(=O)c2cc(NC(=O)Nc3ccc(C(F)(F)F)cc3)ccc2O[C@H]1CN(C)C	0.2
C[C@H]1C=C(C(=O)N2CCN(Cc3ccccc3)CC2)O[C@@H](OCc2ccc(CO)cc2)C1	0.6
C[C@@H]1CCCCO[C@@H](CN(C)Cc2ccc(C(F)(F)F)cc2)[C@H](C)CN([C@H](C)CO)C(=O)c2cc(NS(=O)(=O)c3ccc(Cl)cc3)ccc2O1	-1.9
Cc1noc(C)c1S(=O)(=O)Nc1ccc2c(c1)CC(=O)N([C@H](C)CO)C[C@@H](C)[C@@H](CN(C)C(=O)NC1CCCCC1)O2	1.2
CNC[C@@H]1OCCCC[C@@H](C)Oc2ccc(NC(=O)CCC(F)(F)F)cc2C(=O)N([C@@H](C)CO)C[C@H]1C	0.0
C[C@@H]1CN([C@@H](C)CO)C(=O)c2cc(NC(=O)c3ccccc3)ccc2O[C@@H](C)CCCCO[C@H]1CN(C)C(=O)Nc1cccc2ccccc12	1.2
C[C@@H]1CN([C@H](C)CO)C(=O)c2cccc(NC(=O)C3CC3)c2O[C@@H]1CN(C)C(=O)NC1CCCCC1	0.6
COc1ccc(CN(C)C[C@@H]2OCCCC[C@H](C)Oc3ccc(NC(=O)NC(C)C)cc3C(=O)N([C@H](C)CO)C[C@H]2C)cc1	-0.4
O=C(N=NC=C1C=CN(O)C=C1)c1ccccn1	-0.4
C[C@@H]1CCCCO[C@@H](CN(C)CC2CCCCC2)[C@H](C)CN([C@@H](C)CO)C(=O)c2cc(NC(=O)Nc3cccc4ccccc34)ccc2O1	-0.1
C[C@H](CO)N1C[C@H](C)[C@@H](CN(C)C(=O)Nc2cccc3ccccc23)OCCCC[C@H](C)Oc2ccc(NS(=O)(=O)c3cn(C)cn3)cc2C1=O	-0.3
Cc1cccc(CN(C)C[C@H]2OCc3cnnn3CCCC(=O)N([C@@H](C)CO)C[C@H]2C)c1	1.4
C[C@H]1CN([C@@H](C)CO)C(=O)CCCn2cc(nn2)CO[C@H]1CN(C)S(=O)(=O)c1ccc(Oc2ccccc2)cc1	0.5
COc1ccc(CN(C)C[C@H]2Oc3c(NS(=O)(=O)c4ccc(Cl)cc4)cccc3C(=O)N([C@H](C)CO)C[C@H]2C)cc1	-0.4
C[C@H](CO)N1C[C@H](C)[C@H](CN(C)S(C)(=O)=O)Oc2c(NC(=O)Nc3ccccc3)cccc2C1=O	0.5
C[C@@H]1CN([C@@H](C)CO)C(=O)Cc2cc(NS(=O)(=O)c3cn(C)cn3)ccc2O[C@H]1CN(C)Cc1ccc(C(=O)Nc2ccccc2N)cc1	-2.1
COc1ccc(NC(=O)Nc2cccc3c2O[C@H](CN(C)C(=O)Nc2c(C)noc2C)[C@@H](C)CN([C@H](C)CO)C3=O)cc1	0.1
C[C@@H]1CN([C@H](C)CO)C(=O)c2cc(NS(C)(=O)=O)ccc2O[C@@H](C)CCCCO[C@H]1CN(C)S(=O)(=O)c1cn(C)cn1	-0.4
C[C@H](CO)N1C[C@H](C)[C@H](CN(C)C(=O)Nc2ccccc2)OCCCC[C@H](C)Oc2ccc(NC(=O)Nc3cccc4ccccc34)cc2C1=O	-0.9
Cc1noc(C)c1S(=O)(=O)Nc1ccc2c(c1)C(=O)N([C@@H](C)CO)C[C@@H](C)[C@H](CN(C)C(=O)Nc1ccc3c(c1)OCO3)O2	-0.2
C[C@@H]1CN([C@H](C)CO)C(=O)Cc2cc(NC(=O)CCN3CCOCC3)ccc2O[C@@H]1CN(C)Cc1ccc2c(c1)OCO2	0.5
Cc1ccc(S(=O)(=O)N(C)C[C@H]2OCCCC[C@@H](C)Oc3ccc(NC(=O)Nc4c(C)noc4C)cc3C(=O)N([C@@H](C)CO)C[C@@H]2C)cc1	-1.0

Brought forward from above: 4 entries, then new ones.
SMILES	A1 apoptosis 2
C[C@H](CO)N1C[C@H](C)[C@H](CN(C)C(=O)Nc2ccccc2)OCCCC[C@H](C)Oc2ccc(NC(=O)Nc3cccc4ccccc34)cc2C1=O	-0.9
Cc1noc(C)c1S(=O)(=O)Nc1ccc2c(c1)C(=O)N([C@@H](C)CO)C[C@@H](C)[C@H](CN(C)C(=O)Nc1ccc3c(c1)OCO3)O2	-0.2
C[C@@H]1CN([C@H](C)CO)C(=O)Cc2cc(NC(=O)CCN3CCOCC3)ccc2O[C@@H]1CN(C)Cc1ccc2c(c1)OCO2	0.5
Cc1ccc(S(=O)(=O)N(C)C[C@H]2OCCCC[C@@H](C)Oc3ccc(NC(=O)Nc4c(C)noc4C)cc3C(=O)N([C@@H](C)CO)C[C@@H]2C)cc1	-1.0
Cc1noc(C)c1S(=O)(=O)Nc1ccc2c(c1)C(=O)N([C@@H](C)CO)C[C@H](C)[C@H](CN(C)C(=O)NC1CCCCC1)O2	-0.1
C[C@H](CO)N1C[C@H](C)[C@@H](CN(C)C(=O)NC2CCCCC2)Oc2ccc(NC(=O)Cn3cnnn3)cc2C1=O	-0.5
O=C(CS)NCCCCCCNC(=O)[C@H]1C[C@H]2C(=O)NCC(=O)N2[C@H]1c1cccc(OCCO)c1	0.2
COc1ccc(CN(C)C[C@H]2OCCCC[C@H](C)Oc3ccc(NC(=O)CCCN(C)C)cc3C(=O)N([C@H](C)CO)C[C@H]2C)cc1	-0.3
Cc1noc(C)c1NC(=O)Nc1ccc2c(c1)C(=O)N([C@H](C)CO)C[C@@H](C)[C@H](CN(C)S(=O)(=O)c1cccs1)OCCCC[C@@H](C)O2	-1.0
CC(C)NC(=O)Nc1ccc2c(c1)C(=O)N([C@H](C)CO)C[C@H](C)[C@H](CN(C)C(=O)Nc1ccc(C(F)(F)F)cc1)OCCCC[C@H](C)O2	0.2
C[C@H]1CN([C@@H](C)CO)C(=O)Cc2cc(NC(=O)NC3CCCCC3)ccc2O[C@H]1CN(C)Cc1ccc(Oc2ccccc2)cc1	0.0
C[C@H]1CN([C@@H](C)CO)C(=O)Cc2cc(NC(=O)C3CC3)ccc2O[C@@H]1CN(C)C(=O)Nc1ccccc1	0.3
Cc1noc(C)c1S(=O)(=O)Nc1ccc2c(c1)CC(=O)N([C@H](C)CO)C[C@@H](C)[C@H](CN(C)S(=O)(=O)c1ccccc1)O2	0.4
C[C@H](CO)N1C[C@H](C)[C@@H](CN(C)C(=O)Nc2ccc3c(c2)OCO3)Oc2ccc(NC(=O)Nc3ccc(F)cc3)cc2C1=O	-1.0
CN(CCO)c1ccc(/C=N/NC(=O)c2ccccc2O)cc1	-2.9
C[C@@H]1CN([C@H](C)CO)C(=O)CCCn2cc(nn2)CO[C@H]1CN(C)S(=O)(=O)c1ccc(-n2cccn2)cc1	0.3
CC(C)NC(=O)N(C)C[C@@H]1Oc2ccc(NC(=O)Cn3cnnn3)cc2C(=O)N([C@@H](C)CO)C[C@@H]1C	0.1
C[C@@H]1CN([C@H](C)CO)C(=O)c2cc(N(C)C)ccc2O[C@@H](C)CCCCO[C@H]1CN(C)C(=O)CCC(F)(F)F	0.6
COc1ccc(S(=O)(=O)Nc2ccc3c(c2)C(=O)N([C@H](C)CO)C[C@H](C)[C@@H](CN(C)C(=O)c2ccccc2)OCCCC[C@H](C)O3)cc1	0.2
C[C@H](CO)N1C[C@H](C)[C@@H](CN(C)Cc2ccc(Oc3ccccc3)cc2)Oc2c(NS(C)(=O)=O)cccc2C1=O	0.0
C[C@@H]1CCCCO[C@@H](CN(C)S(=O)(=O)c2ccc(Cl)cc2)[C@@H](C)CN([C@H](C)CO)C(=O)c2cc(NS(=O)(=O)c3ccc(Cl)cc3)ccc2O1	-0.9
C[C@@H]1CCCCO[C@H](CN(C)Cc2ccccc2)[C@@H](C)CN([C@H](C)CO)C(=O)c2cc(NC(=O)CCC(F)(F)F)ccc2O1	-1.7
C[C@@H]1CCCCO[C@@H](CN(C)C(=O)CCC(F)(F)F)[C@H](C)CN([C@@H](C)CO)C(=O)c2cc(NS(C)(=O)=O)ccc2O1	-1.0
C[C@@H]1CN([C@@H](C)CO)C(=O)Cc2cc(NC(=O)Cc3cn(C)c4ccccc34)ccc2O[C@@H]1CN(C)Cc1ccc2c(c1)OCO2	-1.3
O=C(NO)c1ccc(C(=O)N/N=C/c2cccc(O)c2)cc1	-1.4
COc1ccc(NC(=O)N(C)C[C@H]2OCCCC[C@@H](C)Oc3ccc(NC(=O)Nc4c(C)noc4C)cc3C(=O)N([C@@H](C)CO)C[C@H]2C)cc1	1.1
C[C@@H]1CN([C@H](C)CO)C(=O)c2cc(NC(=O)CCC(F)(F)F)ccc2O[C@H]1CN(C)Cc1ccc(C(F)(F)F)cc1	-0.1
C[C@@H]1CN([C@@H](C)CO)C(=O)c2cccc(NC(=O)Nc3ccc4c(c3)OCO4)c2O[C@@H]1CN(C)S(=O)(=O)c1ccc(F)cc1	-0.9
CC(C)NC(=O)Nc1ccc2c(c1)C(=O)N([C@H](C)CO)C[C@@H](C)[C@H](CN(C)Cc1ccc(Cl)c(Cl)c1)OCCCC[C@@H](C)O2	0.5

A few values from above:
Reading for CC(C)NC(=O)N(C)C[C@@H]1Oc2ccc(NC(=O)Cn3cnnn3)cc2C(=O)N([C@@H](C)CO)C[C@@H]1C under A1 apoptosis 2: 0.1
Reading for Cc1noc(C)c1S(=O)(=O)Nc1ccc2c(c1)C(=O)N([C@@H](C)CO)C[C@H](C)[C@H](CN(C)C(=O)NC1CCCCC1)O2 under A1 apoptosis 2: -0.1
Reading for C[C@@H]1CN([C@H](C)CO)C(=O)CCCn2cc(nn2)CO[C@H]1CN(C)S(=O)(=O)c1ccc(-n2cccn2)cc1 under A1 apoptosis 2: 0.3
Reading for C[C@H]1CN([C@@H](C)CO)C(=O)Cc2cc(NC(=O)NC3CCCCC3)ccc2O[C@H]1CN(C)Cc1ccc(Oc2ccccc2)cc1 under A1 apoptosis 2: 0.0
Reading for COc1ccc(S(=O)(=O)Nc2ccc3c(c2)C(=O)N([C@H](C)CO)C[C@H](C)[C@@H](CN(C)C(=O)c2ccccc2)OCCCC[C@H](C)O3)cc1 under A1 apoptosis 2: 0.2

Carrying on:
SMILES	A1 apoptosis 2
COc1ccc(CN(C)C[C@@H]2Oc3ccc(NC(=O)NC(C)C)cc3C(=O)N([C@H](C)CO)C[C@H]2C)cc1	-0.1
Cc1noc(C)c1S(=O)(=O)Nc1ccc2c(c1)C(=O)N([C@H](C)CO)C[C@@H](C)[C@H](CN(C)CC1CCCCC1)OCCCC[C@H](C)O2	-0.8
C[C@@H]1CCCCO[C@H](CN(C)CC2CC2)[C@H](C)CN([C@H](C)CO)C(=O)c2cc(NC(=O)NC3CCCCC3)ccc2O1	-1.3
COc1ccc(NC(=O)Nc2cccc3c2O[C@@H](CN(C)Cc2ccc4c(c2)OCO4)[C@@H](C)CN([C@H](C)CO)C3=O)cc1	-2.8
[N-]=[N+]=NC[C@H](Cc1ccccc1)NC(=O)c1ccccc1	-1.2
C[C@H]1CN([C@@H](C)CO)C(=O)CCCn2nncc2CO[C@@H]1CN(C)Cc1ccc(Cl)c(Cl)c1	0.3
C[C@H]1CN([C@@H](C)CO)C(=O)Cc2cc(NS(=O)(=O)c3ccccc3)ccc2O[C@@H]1CN(C)C(=O)Nc1ccc2c(c1)OCO2	-0.4
Cc1ccc(S(=O)(=O)N(C)C[C@@H]2Oc3ccc(NC(=O)Cc4ccccc4)cc3C(=O)N([C@@H](C)CO)C[C@@H]2C)cc1	0.3
C[C@@H]1CN([C@@H](C)CO)C(=O)Cc2cc(NC(=O)CCN3CCOCC3)ccc2O[C@@H]1CN(C)C(=O)NC1CCCCC1	-0.9
COc1ccc(S(=O)(=O)Nc2ccc3c(c2)CC(=O)N([C@@H](C)CO)C[C@H](C)[C@@H](CN(C)C)O3)cc1	0.0
C[C@H](CO)N1C[C@H](C)[C@@H](CN(C)Cc2ccc(C(=O)Nc3ccccc3N)cc2)Oc2c(NS(=O)(=O)c3cn(C)cn3)cccc2C1=O	0.8
C[C@@H]1CN([C@@H](C)CO)C(=O)CCCn2nncc2CO[C@@H]1CN(C)Cc1ccc(C(F)(F)F)cc1	-0.8
C[C@@H]1CN([C@H](C)CO)C(=O)c2cc(N(C)C)ccc2O[C@@H](C)CCCCO[C@H]1CN(C)S(=O)(=O)c1cccs1	0.4
C[C@@H]1CN([C@@H](C)CO)C(=O)c2cccc(NS(=O)(=O)c3cccs3)c2O[C@@H]1CN(C)Cc1ccc(-c2ccccc2)cc1	-0.4
C[C@@H]1CN([C@@H](C)CO)C(=O)c2cccc(NS(=O)(=O)c3cn(C)cn3)c2O[C@@H]1CN(C)S(=O)(=O)c1cn(C)cn1	-0.4
C[C@@H]1CN([C@H](C)CO)C(=O)Cc2cc(NC(=O)CCN3CCOCC3)ccc2O[C@@H]1CN(C)Cc1ccncc1	0.3
C[C@@H]1CN([C@@H](C)CO)C(=O)CCCn2cc(nn2)CO[C@@H]1CN(C)C(=O)C1CCCCC1	0.3
COc1ccc(S(=O)(=O)N(C)C[C@H]2Oc3ccc(NC(=O)NC(C)C)cc3C(=O)N([C@H](C)CO)C[C@H]2C)cc1	0.1
Cc1noc(C)c1S(=O)(=O)Nc1ccc2c(c1)C(=O)N([C@H](C)CO)C[C@@H](C)[C@@H](CN(C)C(=O)Nc1ccccc1)O2	0.5
C[C@H]1CN([C@@H](C)CO)C(=O)c2cccc(NC(=O)C3CCCCC3)c2O[C@H]1CN(C)Cc1ccc(C(F)(F)F)cc1	-0.1
C[C@H](CO)N1C[C@H](C)[C@H](CN(C)C(=O)Nc2ccccc2)Oc2c(NC(=O)c3ccncc3)cccc2C1=O	-0.6
C[C@@H]1CN([C@@H](C)CO)C(=O)c2cc(NC(=O)CCC(F)(F)F)ccc2O[C@@H](C)CCCCO[C@@H]1CN(C)S(=O)(=O)c1ccccc1	0.6
